High-throughput results (PubChem BioAssay)
Anaer choline gr: inhibitors of anaerobic choline-dependent gram-negative bacterial growth | Gram-negative bacterium anaerobic choline minimal medium, absorbance growth; active compounds read low; many inactives read as strong as hits in the columns shown | calls only | 55,000 tested, 0.2% active | AID 1963822;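 active = growth z-score on choline under -2 at 7 or 20 h with little or no fall on glycerol, limits in tiers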;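 also: stock transfer was 300 nL into about 50 µL; the organism is E. coli; final concentration not given here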
Anaer choline gr early: recorded beside Anaer choline gr, whose call it bears; z-score; measured here: choline growth z-score, timepoint 1;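 score of optical density at 7 h as mean of two plates; lower means less growth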
* marks the source's active call; other numbers are inactive results; i = inactive; + = active, no number; & = joins results of further samples. These rows are one share of the data; the hit share may differ from the screen's.

SMILES	Anaer choline gr	Anaer choline gr early
Cc1cc(C)c(S(=O)(=O)N2CCC3(CC2)Nc2ccc(C)c(C)c2-n2cccc23)c(C)c1	i	-0.8
O=C1COc2ccc(S(=O)(=O)N3CCN(C(=O)NC4CCCCC4)CC3)cc2N1	i	-1.9
Brc1cccc(-c2noc(CSc3nccn3-c3ccccc3)n2)c1	i	1.1
COc1ccc(CNC(=O)C2=C(c3ccccc3)c3cc(Cl)ccc3S(=O)(=O)N2C)c(OC)c1	i	-0.31
COc1ccc(NC(=O)N2CCCC2c2cc(C)no2)cc1OC (stereo unspecified)	i	0.09
CCOC(=O)c1cnn(-c2ccc(OC)cc2)c1-c1ccncc1	i	0.28
O=C(c1csc(S(=O)(=O)N2CCC(C(=O)N3CCN(c4ccccc4)CC3)CC2)c1)N1CCCC1	i	-0.15
Cn1cc(-c2csc(N)n2)c2ccccc21	i	-0.48
CCCCCCCCCCCCCCCCCCOC[C@H](COP(=O)([O-])OCC[N+](C)(C)C)OC(C)=O	i	-0.57&0.71
COc1ccc(-c2csc(Cc3nc(-c4ccc(Cl)cc4)no3)n2)cc1	i	1.1
CC(C)COc1ccc(C(=O)Oc2cccc(-n3cnnn3)c2)cc1	i	2.5
CCOC(=O)c1[nH]c(C)c(CCC(=O)N(CC)CC)c1C	i	-0.23
O=C(NCCc1csc2nc(-c3cccc(F)c3)nn12)c1ccc2c(c1)OCO2	i	0.78
Cn1nnc2cc(C(=O)N3CCc4ccccc43)ccc21	i	-0.77
CCCCC[C@H](O)/C=C/[C@@H]1[C@@H](C/C=C\CCCC(=O)NCC)[C@@H](O)C[C@H]1O	i	-0.49
Cc1cccc(Nc2nc(C(N)=O)c(NC(=O)c3ccc(F)cc3)s2)c1C	i	1.1
COc1ccc(OC)c(NC(=O)CCCn2nc(C)c3nn(-c4ccccc4)c(-n4cccc4)c3c2=O)c1	i	-0.81
CCC(=O)Nc1cccc(-c2noc(C3CCCN(C(=O)c4ccc(OC)c(OC)c4)C3)n2)c1 (stereo unspecified)	i	0.17
O=C(NCc1ccncc1)c1cc(-c2ccc3c(c2)OCO3)nc2ccccc12	i	-0.04
COc1ccc(C(=O)Nc2cccc(-c3nc(-c4ccccc4)no3)c2)cc1	i	1.8
COc1ccc(Cc2nnc3sc(-c4cc(C)nc5ccccc45)nn23)cc1OC	i	-0.44
CCN(CC)CCNCc1ccc(-c2ccc(Cl)cc2)o1	i	0.29
CCOc1ccc(NC(=O)C(CC)Sc2nc3ncccc3[nH]2)cc1 (stereo unspecified)	+	-0.01*
CCN(CC)S(=O)(=O)c1ccc(C(=O)Nc2nc3c(s2)CN(C)CC3)cc1	i	-0.95
O=C(c1cc(-c2ccc3c(c2)OCO3)on1)N1CCCC1c1ccc(F)cc1 (stereo unspecified)	i	-1.5

Carrying on.
SMILES	Anaer choline gr	Anaer choline gr early
O=C(O)c1ccc(N2CCCC2=O)cc1	i	1.3
O=C(CSc1ccccc1)N1CCC(N2CCN(Cc3ccc(F)cc3)C(=O)C2=O)CC1	i	-0.16
CC(C)c1nc(CNC(=O)c2coc(C3CC3)n2)no1	i	0.44
Cc1nc2cccnc2n1C1CCN(C(=O)c2ccccc2)CC1	i	-0.06
NC(=O)c1c(NC(=O)C2CCCN(C(=O)Cc3ccccc3F)C2)sc2c1CCCC2 (stereo unspecified)	i	0.03
Cc1nn(C(=O)Nc2cccc(Br)c2)c2ccccc12	i	1.5
O=C(c1sc2ncccc2c1-n1cccc1)N1CCN(c2ncccn2)CC1	i	-2.3
Cc1ccc(-c2nc(SCc3cc(=O)n4c(C)csc4n3)n3[nH]c(=O)cc3n2)cc1	i	0.29
O=C(Nc1cccc(Br)c1)c1nc(N2CCOCC2)c2oc3ccccc3c2n1	i	-0.27
Cc1nc2sc3ccccc3n2c(=O)c1S(=O)(=O)Nc1ccccc1	i	0.68
COc1ccc(CNc2c(C(=O)Nc3cccc(F)c3)cnc3c2c(C)nn3-c2ccccc2)cc1	i	0.33
Cc1nnc(-c2ccc3ccn(CC(=O)N(C)C4CCCCC4)c3c2)o1	i	-0.07
Cc1noc2c1C(c1cccc(F)c1)C1=C(CC(c3ccccc3)CC1=O)N2 (stereo unspecified)	i	0.09
O=C1CC(c2cccc(Cl)c2)c2cnn(-c3nc4ccccc4s3)c2N1 (stereo unspecified)	i	2.1
O=C(O)c1ccc(N2CCN(c3ncccn3)CC2)c(NC(=O)c2ccc(Br)cc2)c1	i	-0.07
CC(C)c1ccc(NS(=O)(=O)c2cc(-c3noc(C4CC4)n3)cs2)cc1	i	0.77
Cc1ccc(C(=O)c2c(N)c(C(=O)Nc3cccc(F)c3)c3ccccn23)cc1	i	0.09
COc1cccc(C(=O)N2CCCC2c2nnc(C(=O)Nc3cccc(F)c3)s2)c1 (stereo unspecified)	i	-0.29
Oc1ccc(F)cc1-c1ccnc2cc(-c3ccccc3)nn12	i	-0.44
COc1cccc(-c2[nH]nc3nc(-c4ccc(F)cc4)cc(C(=O)NCc4ccccc4OC)c23)c1	i	-0.43
COc1cccc(CSc2ccc(-n3nc4c(c3C)CCC4)nn2)c1	i	3.3
O=S(=O)(c1cc(-c2nnc(C3CC3)o2)co1)N1CCc2ccccc2C1	i	0.64
CCOc1cc(C2C3=C(CC(c4ccc(OC)cc4)CC3=O)Nc3onc(C)c32)ccc1O (stereo unspecified)	i	-0.7
COc1ccc(C2CC(=O)C3=C(C2)Nc2ncnn2C3c2ccc(OC)cc2)cc1 (stereo unspecified)	i	0.87
Cc1noc(-c2ccc(-c3noc(-c4ccccc4Cl)n3)cc2)n1	i	-0.42

(next part)
SMILES	Anaer choline gr	Anaer choline gr early
Cc1ccc(C)c(S(=O)(=O)Nc2cccc(-c3ccc4ccccc4n3)c2)c1	i	0.41
Cc1cccc(C(=O)N2CCN(Cc3noc(-c4ccccc4)n3)CC2)c1	i	0.2
Cc1nc(-c2ccc3c(c2)n(CC(=O)NC2CC2)c(=O)n3C(C)C)no1	i	-0.8
Cc1cc(C)c(NS(=O)(=O)c2cc(-c3nc(C)c(C)s3)sc2C)c(C)c1	i	0.59
CCOC(=O)CCc1c(C)nc2nc(CNc3cccc(Cl)c3)[nH]n2c1=O	i	0.41
O=C(O)c1cccc(NC(=O)c2cc3c([nH]c2=O)CCCC3=O)c1	i	-0.12
COCCn1ccc2nc(C)c(C(=O)NCC3CCCO3)cc2c1=O (stereo unspecified)	i	0.41
COC(=O)c1sccc1NC(=O)N1CCCC1c1ccc(OC)cc1 (stereo unspecified)	i	0.17
O=C(NCCc1ccccn1)c1sc2ncccc2c1-n1cccc1	i	-0.78
Clc1cc(Br)ccc1-c1ccc(CNCC2CCNCC2)o1	i	-4.2
NC(=Nc1ccccc1)NC(=O)c1nc(Cl)c(N)nc1N	i	-0.73&0.62&-1.4
NC(=O)c1nc(-c2ccccc2O)nc2c1[nH]c(=O)n2CC1CCCO1 (stereo unspecified)	i	0.19
CC(C)Cn1c(=O)c2cc(F)ccc2n2c(SCc3ccc(F)cc3)nnc12	i	-0.44
O=C(CN1CC(=O)N2CCCCC2C1=O)Nc1ccc(C(=O)NCc2cccc(Cl)c2)cc1 (stereo unspecified)	i	0.04
CCc1ccc(Cn2c(=O)c3sccc3n3c(=O)[nH]nc23)cc1	i	0.56
COc1cc(OC)cc(-n2nnc(-c3nsc(Nc4ccc(C)cc4)n3)c2C)c1	i	0.76
Cc1ccc2nc(-c3ccccc3NC(=O)c3ccc(N(C)C)cc3)ccc2c1	i	1.4
CCC(=O)N1CCCN(S(=O)(=O)CC)CC1	i	-0.61
CCOc1ccc(N2CCCCn3c2nc2c3c(=O)n(CCC(C)C)c(=O)n2C)cc1	i	0.29
COc1ccc(-c2nc(OCC(=O)Nc3cccc(OC)c3)c3c4c(sc3n2)CCCC4)cc1	i	0.12
Cc1sc(-c2nnc(C(=O)N3CCCCC3)o2)cc1S(=O)(=O)NC1CC1	i	-0.9
CN1CCN(CCNC(=O)c2cnc3sc4c(n3c2=O)CCC4)CC1	i	-0.3
COc1cccc(NC(=O)c2cn(-c3ccc(-c4noc(C)n4)cc3)nc2C)c1	i	0.1
Cc1noc(C)c1C1CCCN1C(=O)Nc1cccc(Cl)c1 (stereo unspecified)	i	0.63
O=C1c2ccccc2C(=O)N1c1cccnc1	i	1.1

(listing goes on)
SMILES	Anaer choline gr	Anaer choline gr early
Cc1ccc(S(=O)(=O)c2cnc(N3CCN(Cc4ccc5c(c4)OCO5)CC3)nc2N)cc1	i	-0.86
COc1ccc(C2=C(C)C(N3CCC(C(=O)NCc4ccc5c(c4)OCO5)CC3)=NS2(=O)=O)cc1	i	0.1
COc1ccccc1CNC(=O)CCCN1C(=O)CSc2ncccc21	i	0.8
COc1ccc(NC(=O)c2ccc3c(c2)CCN3C(C)=O)cc1OC	i	-0.09
CN(C)CCNC(=O)CN1C(=O)CN(C(=O)Nc2ccccc2)c2ccccc21	i	0.36
O=C(c1ccc(C2Nc3ccccc3S(=O)(=O)N2)cc1)N1CCN(C2CCCCC2)CC1 (stereo unspecified)	i	4.8
O=C(OC1Cc2c(O)cc(O)cc2OC1c1cc(O)c(O)c(O)c1)c1cc(O)c(O)c(O)c1 (stereo unspecified)	i	-0.6&-0.07
Cc1nn(-c2nc3ccc(Br)cc3s2)c2c1C(c1ccccc1)CC(=O)N2 (stereo unspecified)	i	-0.69
CCc1cc(Sc2ccc(NC(=O)Nc3ccc(Br)cc3)cc2)n2ncnc2n1	i	0.77
CCn1c(=S)sc2c(=O)n3[nH]c(=O)c4ccccc4c3nc21	i	-1.4
O=c1c(N2CCCCC2)csc2ccccc12	i	-2.1
N#CC1=CN(c2ccc3c(c2)CCC3)c2ccccc2S1(=O)=O	i	-1.3
CCn1ncc(Cl)c1C(=O)N1CCCC1c1cc(C)no1 (stereo unspecified)	i	0.33
Cc1nn(-c2ccc3nnc(C)n3n2)c(C)c1CCC(=O)NC1CCCCC1	i	1.3
Cc1nnc(-c2csc(S(=O)(=O)N3CCC4(CC3)OCCO4)c2)o1	i	-0.18
Cc1cc(C)cc(NC(=O)Nc2ccc3c(c2)N(C)C(=O)CS3)c1	i	-0.32
O=C(c1ccccc1)c1cnc2cc3c(cc2c1S(=O)(=O)c1ccc(F)cc1)OCCO3	i	-1.2
CN1CCN(c2ccc(-c3ccc(NS(=O)(=O)c4ccc(F)cc4F)cc3)nn2)CC1	i	0.99
COc1cccc(C(=O)Nc2cc(F)c3nc(N4CCCC4)ccc3c2)c1	i	0.34
CC(C)(C)C(=O)N1CCCC1c1ccc(Cl)cc1 (stereo unspecified)	i	-0.93
CC(Sc1nnc2ccc3ccccc3n12)C(=O)Nc1ccc(Cl)cc1 (stereo unspecified)	i	0.32
Cc1ccc(-c2cc(-c3nc(-c4ccccc4Br)no3)[nH]n2)cc1C	i	0.4
COc1ccc(NC(=O)C2CC(=O)N(c3cccc(-c4noc(C)n4)c3)C2)cc1OC (stereo unspecified)	i	-0.88
O=C(NCc1c(-c2ccc(F)cc2)nc2n1CCS2)c1ccc(F)cc1	i	-1.1
O=C1NCCCn2nc(C3CCN(S(=O)(=O)c4ccc5c(c4)CCC5)CC3)cc21	i	-1.3

Complete entries, quoted from the list.
Record of O=C(OC1Cc2c(O)cc(O)cc2OC1c1cc(O)c(O)c(O)c1)c1cc(O)c(O)c(O)c1 (stereo unspecified) = Anaer choline gr: i; Anaer choline gr early: -0.6&-0.07
Record of Cc1nn(-c2ccc3nnc(C)n3n2)c(C)c1CCC(=O)NC1CCCCC1 = Anaer choline gr: i; Anaer choline gr early: 1.3

(list continues)
SMILES	Anaer choline gr	Anaer choline gr early
Cc1cc(C)cc(-n2c(CN3CCN(C(=O)NC(C)C)CC3)nc3cccnc32)c1	i	0.4
O=C1CCCc2nc(N3CCc4ccccc43)ncc21	i	-0.05
O=S(=O)(c1cccc(Cl)c1)N1CCN(c2ncnc3c2nnn3-c2cccc(F)c2)CC1	i	-0.13
COCc1cc(C)nc2sc3c(=O)n(-c4ccc(C)cc4)nnc3c12	i	0.35
CCCC[C@@H](C)/C=C(C)/C=C(\C)C(=O)NC1=C[C@@](O)(/C=C/C=C/C=C/C(=O)NC2=C(O)CCC2=O)[C@@H]2O[C@@H]2C1=O	i	0.58
CCOC(=O)c1[nH]c(C)c(CCC(=O)N2CCCC(C(=O)NCCN(CC)CC)C2)c1C (stereo unspecified)	i	1.3
Cc1ccc(-c2noc(-c3ccc[nH]c3=O)n2)cc1	i	0.68
COc1ccc(Cn2c(C)c(C3=CCN(S(=O)(=O)c4c(C)nn(C)c4C)CC3)c3ccccc32)cc1	i	0.65
Cc1cccc(NC(=O)c2sc3nc4n(c(=O)c3c2C)CCCCC4)n1	i	0.73
O=C(Cn1c2ncccc2c(=O)n1-c1ccccc1)NCc1ccc(Cl)cc1	i	0.21
OCCSc1nnc(CCSCc2ccccc2)n1-c1ccccc1	i	1.1
Cc1cccc(-c2nc3nc(CN(CCO)Cc4ccccc4)cc(=O)n3[nH]2)c1	i	0.12

Structural class: those above with a furan ring, fused or not
SMILES	Anaer choline gr	Anaer choline gr early
CCN(CC)CCNCc1ccc(-c2ccc(Cl)cc2)o1	i	0.29
O=C(Nc1cccc(Br)c1)c1nc(N2CCOCC2)c2oc3ccccc3c2n1	i	-0.27
O=S(=O)(c1cc(-c2nnc(C3CC3)o2)co1)N1CCc2ccccc2C1	i	0.64
Clc1cc(Br)ccc1-c1ccc(CNCC2CCNCC2)o1	i	-4.2

3 compounds already listed, arranged by the number in Anaer choline gr early, highest first.
SMILES	Anaer choline gr	Anaer choline gr early
CN(C)CCNC(=O)CN1C(=O)CN(C(=O)Nc2ccccc2)c2ccccc21	i	0.36
COc1cccc(C(=O)Nc2cc(F)c3nc(N4CCCC4)ccc3c2)c1	i	0.34
O=C(O)c1ccc(N2CCN(c3ncccn3)CC2)c(NC(=O)c2ccc(Br)cc2)c1	i	-0.07
